Six1-Eya2 blk: qHTS Assay for Inhibitors of the Six1/Eya2 Interaction; AlphaScreen GST-Six1/His-Eya2 binding, biochemical; active compounds read low; control for the full effect not named in the record; activity change, % (concentration not given with the values); Homeobox protein SIX1 (Homo sapiens) + Protein phosphatase EYA2 (Homo sapiens), …; actives 0.56% (n = 360,000); in the data active = activity change below about -65%; inconclusive = about -30% to -65%; inactive = above about -30%; note: % is set by controls: 0 for no effect and ±100 for the full control effect
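Compounds are tested against tagged Six1 and Eya2 proteins bridged by glutathione donor and nickel acceptor beads; after a one-hour incubation at 37 °C without light, AlphaScreen emission is recorded.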
gsp ag: qHTS for Agonist of gsp, the Etiologic Mutation Responsible for Fibrous Dysplasia/McCune-Albright Syndrome: qHTS. actives 0.13% (n = 340,000). AID 624287, 2012. Potency, µM (highest dose often 76.9 µM), for the others: at the highest dose activation (cAMP increase), actives largely listed as activators. gsp mutant cells, cAMP HTRF, 30 min; control for the full effect not named in the record; active = well fitted activation curve with a large enough effect; inconclusive = small, poorly fitted or top-dose-only effect, or another doubt; inactive = no such curve, though single readings can be large or run the other way; cell line not stated here;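 note: phosphodiesterase inhibitor Ro 20-1724 added with compounds to block cAMP breakdown; potency is the fitted concentration of half-maximal effect; nearly all actives have a fitted effect of over 60% in size; about a fifth of the inactives were tested at one dose only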
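Cells stably selected in G418 were plated at 2000/well, grown 16-24 hr, then given compounds in DMSO with the PDE inhibitor […] (300 uM solution added) for 30 min at 37C; cAMP was read by HTRF.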
CtBP-E1A blk: qHTS Assay for Inhibitors of the CtBP/E1A Interaction | CtBP / adenovirus E1A interaction (AlphaScreen) | AlphaScreen GST-E1A/His-CtBP binding, 1536-well; active compounds read low; control for the full effect not named in the record | actives 0.49% (n = 340,000) | activity change, % (no concentration beside the values); in the data active means activity change below about -65%; inconclusive means about -30% to -65%; inactive means above about -30%; note: % is set by controls: 0 for no effect and ±100 for the full control effect
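AlphaScreen with 125 nM GST-E1A and 125 nM His-CtBP (5X stocks) in Tris pH 8.0, 300 mM NaCl, BSA, Tween 20, TCEP. Compounds preincubated 2 h at 37 deg C, then glutathione donor/nickel acceptor beads added for 1 h at 37 deg C in dark.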
D2 ag: Beta-Arrestin HTS for Positive Allosteric Modulators of the Human D2 Dopamine Receptor: Agonists; actives 0.084% (n = 360,000); DiscoveRx PathHunter D2 beta-arrestin, luminescence, 90 min; 100% = 57 uM dopamine signal; activation, % (concentration not given with the values); in the data active = activation above about 40%; inconclusive = about 15% to 40%; inactive = below about 15%; note: compound concentration not given in the record; the text of the record calls up to 30% inactive
Target sequence (P14416 whole entry, looked up): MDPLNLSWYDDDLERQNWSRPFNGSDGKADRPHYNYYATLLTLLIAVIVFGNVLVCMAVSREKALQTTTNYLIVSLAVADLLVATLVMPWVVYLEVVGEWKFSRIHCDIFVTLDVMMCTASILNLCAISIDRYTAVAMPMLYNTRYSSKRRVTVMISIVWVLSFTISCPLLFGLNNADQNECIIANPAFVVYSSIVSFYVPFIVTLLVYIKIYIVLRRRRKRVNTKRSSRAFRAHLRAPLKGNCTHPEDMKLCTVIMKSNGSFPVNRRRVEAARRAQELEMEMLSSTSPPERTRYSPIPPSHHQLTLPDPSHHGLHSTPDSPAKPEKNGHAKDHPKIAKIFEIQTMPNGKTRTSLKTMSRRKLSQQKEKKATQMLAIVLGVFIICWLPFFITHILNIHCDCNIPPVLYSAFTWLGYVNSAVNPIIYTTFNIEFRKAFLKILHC
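Agonist mode: compounds alone added to overnight-plated D2 PathHunter cells for 90 min at 37 C, with 57 uM final dopamine (EC100) defining full response. Beta-arrestin recruitment detected by chemiluminescent reagent, read after 1 h at ambient temperature.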
D2 PAM: Beta-Arrestin HTS for Positive Allosteric Modulators of the Human D2 Dopamine Receptor: Potentiators; actives 0.23% (n = 360,000); DiscoveRx D2 beta-arrestin cells, luminescence, 90 min; 100% = 57 uM dopamine signal; potentiation, % (concentration not given with the values); active = potentiation of 50% or more; inconclusive = 30% to 50%; inactive = 30% or less;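 note: compound concentration not given in the record; tested on top of an EC20 dose of dopamine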
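PathHunter beta-arrestin assay in DiscoveRx D2 cells. Compounds were added with an EC20 of dopamine (50 nM final) for 90 min at 37 deg C. Luminescence was read 1 h after detection reagent, with 57 uM dopamine as the EC100 control.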
gsp antagonist: qHTS for Antagonists of gsp, the Etiologic Mutation Responsible for Fibrous Dysplasia/McCune-Albright Syndrome: qHTS. gsp-mutant cells, cAMP HTRF, 30 min; control for the full effect not named in the record. AID 624288, 2012. Potency, µM (series often up to 76.9 µM), inactives show at the top dose activity change, negative = inhibition, hits mostly inhibitors. actives 0.4% (n = 340,000); active = falling curve of any shape with a large fitted effect; inconclusive = falling curve, mostly with a smaller effect; inactive = flat or rising curve; cell line not stated here;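 note: intracellular cAMP measured with PDE inhibitor Ro 20-1724 present during compound exposure; potency is the fitted concentration of half-maximal effect; % is set by controls: 0 for no effect and ±100 for the full control effect; nearly all actives have a fitted effect of over 65% in size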
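Cells, 2000/well, grown 16–24 h in DMEM 10% FBS with 0.5 mg/ml G418, then compounds plus […] (300 uM addition stock), 30 min at 37C. cAMP read by HTRF (cAMP-d2 and anti-cAMP antibody-K in lysis buffer) after 30 min RT.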
* hit, by the source's call; ? = inconclusive; . = not tested or not shown; & = joins results of further samples; [ ] = dose if it differs, or a comment. The order is random, and some 1.4% of all compounds hit somewhere here.

SMILES	Six1-Eya2 blk	gsp ag	CtBP-E1A blk	D2 ag	D2 PAM	gsp antagonist
CCn1c(SCC(=O)Nc2ccc(Cl)cc2)nnc1C1CC1	1	-12%	9	-0.8	-6	0%
CCCc1ccc(-c2ccc(C(=O)O)cc2)nc1	-1	7%	-6	3.7	1	?
CCN(CC)S(=O)(=O)c1ccc2c(c1)nc(CCC(=O)OCC(=O)Nc1cc(OC)cc(OC)c1)n2C	1	14%[15.4 µM]	1	-0.9	-6	-26%
COc1ccccc1NC(=O)c1cc2c(CO)cnc(C)c2oc1=Nc1cccc(C(N)=O)c1	-18	-14%	.	-1.8	-3	0%
COc1ccccc1N1CCN(C2CCCN(C(=O)c3cc(C)oc3C)C2)CC1 (stereo not drawn)	5	0%	-17	-1.3	-33	-3%
O=C(Cn1cc([N+](=O)[O-])cn1)NCc1ccccc1	0	1%	.	-3.5	-13	10%
O=C(Nc1nc2cc3c(cc2s1)OCO3)c1ccco1	-14	-12%[15.4 µM]	-6	0.8	-5	5%
Nc1c(C(=O)Nc2ccccc2)sc2nc3c(c(-c4ccco4)c12)CCC3	-9	?	-20	-2.3	-3	2%
O=C(O)c1cc(Cl)c(Cl)cc1C(=O)Nc1cccc2cccnc12	-15	-8%	-19	-1.2	-14	12%
NC(=O)COC(=O)c1cccc(S(=O)(=O)N2CCCc3ccccc32)c1	-1	2%	8	-2.5	-13	-19%
O=C(COC(=O)C1CCC1)NCCc1ccc(Cl)cc1Cl	9	?	10	0.5	8	16%
CCn1cc(C(=O)N2CCN(c3ccc(OC)cc3)CC2)c(=O)c2cc(S(=O)(=O)N3CCCCC3)ccc21	4	-33%[inhibitor]	.	-2.0	-1	-2%
CCOc1cccc(CN(CC)CC2CCCN(CCc3cccc(OC)c3)C2)c1O (stereo not drawn)	-10	7%[15.4 µM]	-27	-3.4	-28	9%
Cc1cc(OCC(=O)NC2CCN(C)CC2)ccc1[N+](=O)[O-]	-3	-54%[inhibitor]	-1	-2.7	-2	12%
CCN1C(=O)[C@H]2[C@@H](c3ccc(-c4ccc(C(C)=O)cc4)cc3)N[C@@](C)(C(=O)OC)[C@H]2C1=O	8	-3%	.	0.2	-2	-8%
O=C(Nc1ccc(N2CCCC2)c(Cl)c1)c1cccc(-c2cc3ccccc3oc2=O)c1	-16	7%	-18	-0.4	-10	0%
O=c1nc2ccccc2c2n1CC(CN1CCN(Cc3ccccc3)CC1)N2 (stereo not drawn)	1	26%	0	-1.9	7	7%
CC(C(=O)NCc1ccccc1)n1cc([N+](=O)[O-])cn1 (stereo not drawn)	7	1.6µM*	0	-15	3	5%
Cc1[nH]c2ccccc2c1C(O)CN1CCN(c2cccc(C(F)(F)F)c2)CC1 (stereo not drawn)	-11	?	-5	9.2	-31	4%
C(=C\c1ccccc1)/CN1CCN(C(c2ccccc2)c2nnnn2C2CCCC2)CC1 (stereo not drawn)	-19	.	-19	-2.9	-12	.
O=C(O)C/C(=C\c1ccc2c(c1)OCO2)c1nc2ccccc2s1	1	17%[15.4 µM]	21	0.3	2	?
Oc1ccccc1-c1cc(-c2ccc3c(c2)OCCO3)n[nH]1	-1	-48%[inhibitor]	2	2.8	-5	-21%
CCOC(=O)c1c(C)n(C)c2ccc(OC)c(NS(=O)(=O)c3ccc(Cl)s3)c12	3	18%	2	-2.9	1	-24%
Cc1ccc(S(=O)(=O)Oc2ccccc2/C=N/NC(=O)c2c(Cl)cnn2C)cc1	-7	-22%	8	-2.5	-4	?
Cc1ccc(SCC(=O)OCC(=O)NCCNC(=O)COC(=O)CSc2ccc(C)c(C)c2)cc1C	3	-2%	-3	1.7	3	2%
O=C(COc1ccccc1Cl)OCC(=O)N1CCN(S(=O)(=O)c2ccccc2)CC1	0	-51%[inhibitor]	6	-2.8	-2&-8	-3%
O=c1c(-c2ccc(Cl)cc2)[n+]([O-])c2ccccc2n1O	8	-34%[inhibitor]	-7	-4.1	14	2%
CC(C)n1nnnc1SCC(=O)c1c(N)n(C2CC2)c(=O)[nH]c1=O	7	30%	.	-2.2	-8	10%
CCCn1c(NCc2ccc(N(C)C)cc2)nc2ccccc21	-21	-52%[inhibitor]	-10	-0.4	-11	1%
C=CCN1C2CCCC1CC(NC(=O)Nc1cc(C)cc(C)c1)C2 (stereo not drawn)	0	-10%[15.4 µM]	4	-2.9	-22	17%

Fetched by compound from above, 2 records:
SMILES	Six1-Eya2 blk	gsp ag	CtBP-E1A blk	D2 ag	D2 PAM	gsp antagonist
CCN(CC)S(=O)(=O)c1ccc2c(c1)nc(CCC(=O)OCC(=O)Nc1cc(OC)cc(OC)c1)n2C	1	14%[15.4 µM]	1	-0.9	-6	-26%
C=CCN1C2CCCC1CC(NC(=O)Nc1cc(C)cc(C)c1)C2 (stereo not drawn)	0	-10%[15.4 µM]	4	-2.9	-22	17%

Following part.
SMILES	Six1-Eya2 blk	gsp ag	CtBP-E1A blk	D2 ag	D2 PAM	gsp antagonist
O=C(CCC(=O)N1CCN(S(=O)(=O)c2ccc(Cl)cc2)CC1)NC1CCCc2ccccc21 (stereo not drawn)	-8	-13%	-1	2.7	3	?
CC1=CC=CN2C1=NC(=O)CC2(C)C(=O)N(CC(=O)NC1CCCC1)c1cc(C)cc(C)c1 (stereo not drawn)	6	-18%	-5	2.2	-11	1%
Cc1ccc2c(c1)c1ccc3c(c1n2C)C(=O)C=CC3=O	?	3%	?	-8.9	-19	-6%
COc1ccccc1NCc1cc(=O)oc2c(C)c(O)ccc12	-10	0%	-12	-2.6	-3	-18%
Cc1cc(NC(=O)CSc2nnc(Cc3ccccc3)n2C)no1	-4	1%	0	-1.3	1	2%
CCCC(=O)Nc1ccccc1Sc1ncnc2scc(-c3ccccc3)c12	1	?	1	-3.4	13	3%
CSCCC(NC(=O)COc1ccccc1)C(=O)N(C)Cc1ccc(Cl)cc1Cl (stereo not drawn)	-14	-18%	.	0.8	12	?
c1ccc(C2CC(c3ccccc3)C(c3ccccc3)N2)cc1 (stereo not drawn)	5	17%[15.4 µM]	17	2.1	-14	-14%
CC12CC(NC(=O)N1c1cccc(C(=O)N3CCCCC3)c1)c1ccccc1O2 (stereo not drawn)	-1	10%	0	-1.1	-6	12%
COc1ccc(C(NC(=O)C2CCN(CCCOc3ccccc3)CC2)c2cccs2)cc1 (stereo not drawn)	1	.	-13	-3.5	-12	.
O=C(c1cnn2c(C(F)(F)F)cc(-c3ccccc3)nc12)N1CCOCC1	3	-61%	9	-2.0	-4	0%
CN1CCc2c(sc3nc(NCCO)n(-c4cccc(Cl)c4)c(=O)c23)C1	-1	-3%	3	-1.3	1	8%
Cc1ccc(-n2c(O)c(C=NC3CCS(=O)(=O)C3)c3ccccc3c2=O)cc1 (stereo not drawn)	5	-2%	11	-1.2	0	-2%
COc1cc(C(=O)NCCN2CCCC2)cc(OC)c1OC	-2	12%	0	-1.6	-11	5%
O=C1CSC(=S)N1N=Cc1c(O)ccc2ccccc12	-88*	7%	-89*	7.4	8	-16%
O=c1cc(CCl)nc2scc(-c3ccccc3)n12	2	-23%	.	-4.0	-14	-1%
O=C(Nc1ccc(N2CCCCC2)cc1)c1ccc(F)cc1F	-1	-2%[15.4 µM]	-8	3.4	6	4%
CC(=NNC(=O)c1ccc2nc[nH]c2c1)c1ccc(Br)cc1	1	-2%	-12	-3.9	-5	-15%
O=C1C(=O)N(O)C2CCCCC2N1O (stereo not drawn)	-3	-3%	-11	-0.7	-14	5%
COC(=O)c1ccc(C(=O)OC)c(NC(=O)CSCC(=O)O)c1	-4	-10%	4	-2.4	1	5%
CC1CCN(C(=O)CSc2nc3c(cnn3-c3ccccc3)c(=O)[nH]2)CC1	1	?	1	-2.1	0	-11%
CC1CCCC(NC(=O)COC(=O)Cc2ccc(Cl)cc2)C1C (stereo not drawn)	9	21%	0	-2.8	-3	12%
COc1ccc(OC)c(S(=O)(=O)Nc2cccc(O)c2)c1	1	-1%[15.4 µM]	-1	-2.4	-4	10%
Cc1ccc(S(=O)(=O)Cn2nnnc2C(C(C)C)N2CCN(c3nc4ccccc4s3)CC2)cc1 (stereo not drawn)	-1	-30%	-2	-2.5	-5	-4%
COc1ccccc1NS(=O)(=O)c1ccc(NN=C2CCCCC2)c([N+](=O)[O-])c1	?	-28%	1	0.7	16	-5%
O=C(Nc1ccon1)c1ccc(Cl)s1	-2	15%	-12	1.0	0	2%
Cc1cc2c(cc1C)N(C(=O)CCl)CC(=O)N2	2	?	0	-6.5	-6	.
COc1cc2c(cc1OC)C1(CCCC1)CNC2c1ccc([N+](=O)[O-])cc1 (stereo not drawn)	3	7%[15.4 µM]	-17	-3.0	-9	.
OC(CN1CC=C(/C=C/c2ccc(Br)cc2)CC1)c1ccccc1 (stereo not drawn)	0	-4%	-7	13	-20	5%
COc1cccc(C2CC(c3c(F)cccc3Cl)n3nc(N)nc3N2)c1 (stereo not drawn)	-6	-8%	0	0.2	3	12%

Twelve structures already listed, arranged by formula weight, smallest number first.
SMILES	Six1-Eya2 blk	gsp ag	CtBP-E1A blk	D2 ag	D2 PAM	gsp antagonist
O=C1C(=O)N(O)C2CCCCC2N1O (stereo not drawn)	-3	-3%	-11	-0.7	-14	5%
O=C(Nc1ccon1)c1ccc(Cl)s1	-2	15%	-12	1.0	0	2%
Cc1cc2c(cc1C)N(C(=O)CCl)CC(=O)N2	2	?	0	-6.5	-6	.
O=c1cc(CCl)nc2scc(-c3ccccc3)n12	2	-23%	.	-4.0	-14	-1%
O=C(Nc1ccc(N2CCCCC2)cc1)c1ccc(F)cc1F	-1	-2%[15.4 µM]	-8	3.4	6	4%
COC(=O)c1ccc(C(=O)OC)c(NC(=O)CSCC(=O)O)c1	-4	-10%	4	-2.4	1	5%
CC(=NNC(=O)c1ccc2nc[nH]c2c1)c1ccc(Br)cc1	1	-2%	-12	-3.9	-5	-15%
COc1cc2c(cc1OC)C1(CCCC1)CNC2c1ccc([N+](=O)[O-])cc1 (stereo not drawn)	3	7%[15.4 µM]	-17	-3.0	-9	.
COc1cccc(C2CC(c3c(F)cccc3Cl)n3nc(N)nc3N2)c1 (stereo not drawn)	-6	-8%	0	0.2	3	12%
CC1CCN(C(=O)CSc2nc3c(cnn3-c3ccccc3)c(=O)[nH]2)CC1	1	?	1	-2.1	0	-11%
OC(CN1CC=C(/C=C/c2ccc(Br)cc2)CC1)c1ccccc1 (stereo not drawn)	0	-4%	-7	13	-20	5%
Cc1ccc(S(=O)(=O)Cn2nnnc2C(C(C)C)N2CCN(c3nc4ccccc4s3)CC2)cc1 (stereo not drawn)	-1	-30%	-2	-2.5	-5	-4%
